VACV Venus inh – inhibitors of vaccinia virus (Venus reporter) | Vaccinia virus Venus reporter expression, fluorescence | Potency, µM (doses to about 36.5 µM), without a hit: at the highest dose activity change, negative = inhibition, actives largely listed as inhibitors | hit rate 0.46% among 330,000 | AID 720580; active means well fitted inhibition curve with a large enough effect; inconclusive means small, poorly fitted or top-dose-only effect; inactive means no such curve, though single readings can be large or run the other way; tested in A549 cells; note: nearly all actives have a fitted effect of over 30% in size; inactives centre near -10
VACV mCherry inh – vaccinia inhibition (mCherry reporter) | Vaccinia virus mCherry reporter infection, fluorescence; about a quarter of the inactives have no number | Potency, µM (highest dose often 36.5 µM), without a hit: at the highest dose activity change, negative = inhibition, actives largely listed as inhibitors | hit rate 0.63% among 310,000 | AID 720579; active = well fitted inhibition curve with a large enough effect; inconclusive = small, poorly fitted or top-dose-only effect; inactive = no such curve, though single readings can be large or run the other way; tested in A549 cells; note: nearly all actives have a fitted effect of over 35% in size; inactives centre near -10
* hit, by the source's call; i = inactive; ? = inconclusive; . = not tested or not shown; & = joins results of further samples; [ ] = dose if it differs, or a comment. % is set by controls: 0 for no effect and ±100 for the full control effect; potency is the fitted concentration of half-maximal effect. Rows are unselected. About 0.87% of those tested had a hit in this group.

Compound,VACV Venus inh,VACV mCherry inh
Cc1nc2ccccc2c(=O)n1NC(=O)c1ccccc1,-16%,i
CCc1cc(=O)oc2cc(C)cc(OC(C)C(=O)NC(Cc3c[nH]c4ccc(O)cc34)C(=O)O)c12 (stereo not given),-2%,0%
CC1CCCCN1C(=S)NCc1ccco1 (stereo not given),3%,-6%
CC(=O)NC12CC3CC(C1)CC(C(=O)N1CCN(S(=O)(=O)c4ccc(Cl)s4)CC1)(C3)C2,-21%,-19%
CCCCCCCCNC(=O)/C(C#N)=C/c1ccccc1[N+](=O)[O-],-19%,-3%
O=C1OCc2cccc([N+](=O)[O-])c21,7%,18%
COc1ccc(Cn2c(CCC(=O)Nc3cc(C)cc(C)c3)nc3cccnc32)cc1,?,?
CC(=O)c1cccc(NC(=S)NC(=O)c2ccccc2)c1,-12%,i
CCOC(=O)N1CCN(S(=O)(=O)c2cc(C)c(C)cc2C)CC1,-12%,?
OCCOCCNc1ncnc2sc(-c3ccccc3)cc12,-14%,-24%
C[C@@H]1CN([C@H](C)CO)C(=O)c2cc(NC(=O)Cc3cn(C)c4ccccc34)ccc2O[C@H]1CN(C)C(=O)Nc1ccc2c(c1)OCO2,-14%,i
COc1ccc(N2C(=O)C3C(c4ccc(C(=O)O)cc4)NC(Cc4ccccc4)(C(=O)O)C3C2=O)c([N+](=O)[O-])c1 (stereo not given),-14%,i

Further records:
Compound,VACV Venus inh,VACV mCherry inh
CSc1nsc(/C=C/Nc2cccc(Cl)c2)c1C#N,-19%,.
CNC(=O)c1cc2c(n(-c3ccc(C)cc3)c1=O)CC(C)(C)CC2=O,-1%,9%
CC(=O)Nc1cccc(C(=O)NCc2ccc3c(c2)CCN3C(=O)c2ccccc2)c1,-8%,-7%
Cc1ccc2cc(CN(Cc3ccco3)C(=O)NC3CCCCC3)c(=O)[nH]c2c1C,-8%,-13%
Cc1ccccc1OCC(=O)OCC(=O)Nc1cc(S(C)(=O)=O)ccc1Cl,-16%,i
Cc1ccccc1C(=O)Oc1ccc(Cl)cc1C(=S)N1CCOCC1,-9%,-18%
O=C(O)CCn1nc(-c2ccc(F)cc2)cc(Cc2ccccc2)c1=O,-12%,-15%
CC(=O)Nc1cccc(-c2ccnc3c2CC(C)(C(=O)NCc2ccc(N(C)C)cc2)O3)c1 (stereo not given),-23%,-30%
Oc1ccc(/C=N/Nc2cccc3cccnc23)c(O)c1,-23%,?
COc1ccc(NC(=O)C(=O)NCCC2CCCCN2S(=O)(=O)c2ccc(F)cc2)cc1 (stereo not given),?,-13%
CC(C)Nc1nc(Cl)nc(N(C#N)CN2C(=O)c3ccccc3C2=O)n1,?,?
CCN(C(=O)COC(=O)c1ccc(-n2c(C)ccc2C)cc1)c1c(N)n(Cc2ccccc2)c(=O)[nH]c1=O,-12%,-9%

(list continues)
Compound,VACV Venus inh,VACV mCherry inh
COc1ccc(C2CC(c3ccccc3)=NN2c2ccc(Cl)c(C(=O)O)c2)cc1 (stereo not given),-8%,i
COC(=O)[C@]1(C)N[C@H](CN(C)S(=O)(=O)c2ccc(C)cc2)[C@@H]2C(=O)N(Cc3ccccc3)C(=O)[C@@H]21,-8%,i
COC(=O)C(CCSC)NC(=O)c1cc2c(n(-c3ccc(C)cc3)c1=O)CC(C)(C)CC2=O (stereo not given),-12%,-14%
O=C1CC(c2ccccc2)n2nc(NC(=O)C3CCCO3)nc2N1 (stereo not given),-6%,.
CC(C)CC(=O)Nc1c2c(nn1-c1cccc(Cl)c1)CS(=O)C2 (stereo not given),0%,-8%
CC1CCC2(CC1)NC(=O)N(CC(=O)Nc1cccc(S(=O)(=O)N3CCOCC3)c1)C2=O (stereo not given),-4%[7.34 µM],0%[7.34 µM]
Cc1ccc(S(=O)(=O)CCC(=O)OC(C)C(=O)c2c(C)[nH]c3ccccc23)cc1 (stereo not given),-5%,-4%
COc1ccc(S(=O)(=O)N2CCOCC2)cc1NC(=O)CSc1n[nH]c(=O)n1C1CC1,-11%,-11%
CC(C)(C)Cc1nnc(NC(=O)c2ccc3c(c2)OCO3)s1,-9%,i
CC(NC(=O)COC(=O)C1CCCCC1)c1ccccc1 (stereo not given),-12%,-3%
C=C(C)c1cccc(C(C)(C)NC(=O)N2CCCC(C(N)=O)C2)c1 (stereo not given),-9%,.
S=C1NCC(c2ccccc2)S1 (stereo not given),-13%,?

Other records
Compound,VACV Venus inh,VACV mCherry inh
CNc1snc(C)c1C(=O)OC(C)C(=O)NCc1ccccc1 (stereo not given),3%,-1%
O=C(Cc1cccc(NC(=O)C2CCN(S(=O)(=O)c3cccc([N+](=O)[O-])c3)CC2)c1)Nc1cccc(C(=O)N2CCCCC2)c1,-20%,-4%
COc1ccc2cc(C(=O)NCc3ccc4c(c3)CCN4C(=O)c3ccccc3)[nH]c2c1,-28%,-29%
CCN1CCN(CCC(=O)Nc2cccc(C)c2)CC1,1%,-2%
CCCn1c2ccccc2c2nnc(SCC(=O)Nc3c(C)n(C)n(-c4ccccc4)c3=O)nc21,-30%,-23%
Cc1[nH]c2ccccc2c1C(C[N+](=O)[O-])c1cccs1 (stereo not given),-13%,-18%
CCS(=O)(=O)N1CCc2cc(C(=O)Nc3cc(Cl)ccc3C)ccc21,-4%,i
O=c1cc(CSc2nnc(-c3ccccc3)o2)c2ccccc2[nH]1,-4%,-13%
O=C(CSc1nc(O)c(C2CCCCC2)c(=O)[nH]1)N1CCOCC1,-8%,-11%
CCOC(=O)[C@]12Cc3c(cc(OC)c(OC)c3OC)[C@H]1N(C(C)C)C(=O)c1cc(OC)ccc12,?,?
Cc1csc(NC(=O)C2CCN(S(=O)(=O)c3ccccc3)CC2)n1,-16%,-22%
C=CCNc1ncnc2c1cnn2-c1ccc(C)cc1C,-23%,i

4 of the compounds above, with two lines to a compound:
Below each compound – VACV Venus inh	VACV mCherry inh
> COc1ccc(C2CC(c3ccccc3)=NN2c2ccc(Cl)c(C(=O)O)c2)cc1 (stereo not given)
    -8%	i
> CCCn1c2ccccc2c2nnc(SCC(=O)Nc3c(C)n(C)n(-c4ccccc4)c3=O)nc21
    -30%	-23%
> CC(=O)NC12CC3CC(C1)CC(C(=O)N1CCN(S(=O)(=O)c4ccc(Cl)s4)CC1)(C3)C2
    -21%	-19%
> CC(C)CC(=O)Nc1c2c(nn1-c1cccc(Cl)c1)CS(=O)C2 (stereo not given)
    0%	-8%

Continued.
Compound,VACV Venus inh,VACV mCherry inh
CCc1cccc(C)c1NS(=O)(=O)c1c(C)nc2sccn2c1=O,-8%&-16%,i
NNc1ccccc1C(F)(F)F,3%,-10%
CCOC(=O)C1CCN(C(=O)COC(=O)COc2ccccc2OC)CC1,-7%,-9%
O=[N+]([O-])c1ccccc1S(=O)(=O)NC1CCCC1,-8%,-4%
C/C(Cl)=C\Cn1c(O)c(N=NC(N)=S)c2ccccc21,?,0.32µM*
N#Cc1cccc(CSc2nnc(CCCO)n2-c2ccccc2)c1,-15%,-16%
CCOc1cc(N2CCOCC2)c(OCC)cc1NC(=O)COC(=O)c1cc(C)cc(C)c1,-2%,-12%
c1ccc(-c2ccc3sccc3n2)cc1,-10%,-15%
COc1cc(OC)c(NS(=O)(=O)c2c(C(=O)N3CCC(C)CC3)c(C)n(C)c2C)cc1Cl,-16%,-13%
Cc1ccc(NC2=C(c3ccc(C(F)(F)F)cc3)C(=O)c3ccccc32)cc1F,-3%,-4%
O=C(NCC(O)c1ccc2ccccc2c1)c1c(F)cccc1F (stereo not given),-19%,-19%
O=C1CCCN1CCCNc1ncccc1[N+](=O)[O-],43%[activator],-6%

Next section:
Compound,VACV Venus inh,VACV mCherry inh
CC(C)(C)N(C(=O)Cn1nnc(-c2ccc(F)cc2)n1)C(C(=O)NC1CCCC1)c1ccncc1 (stereo not given),-17%,i
O=C(Nc1ccc(OC(F)(F)F)cc1)c1ccc(-n2cncn2)nc1,1%,3%
COc1ccc(C2CC(=O)Nc3c2c(=O)nc2c(C)cccn32)cc1OC (stereo not given),-12%,1%
CC1CCN(C(c2ccccc2)c2sc3nc(-c4ccco4)nn3c2O)CC1 (stereo not given),-18%,-24%
Cc1cc(-c2ccccc2N)n[nH]1,-19%,-23%
O=C(COc1ccc(F)cc1Cl)N1CCN(C(=O)c2cccs2)CC1,-20%,-14%
CCOC(=O)CSc1nnc(CNC(=O)c2ccc(OC)c(OC)c2)n1C,-5%,-4%
CCOc1cc(N2CCOCC2)c(OCC)cc1NC(=O)COc1cccc(Cl)c1,-19%,i
O=c1cc(CSc2ccccn2)[nH]c(=O)[nH]1,-5%,.
COc1ccc(N(C)C(=O)c2nn(-c3ccc(C)cc3)c(=O)n(C)c2=O)c(OC)c1,-9%,-9%
COC(=O)c1cn(Nc2ncc(C(F)(F)F)cc2Cl)c(=O)c2ccccc12,-13%,.
O=C(NCCc1c[nH]c2ccccc12)c1cc2ccccc2oc1=O,-4%,-1%

The list continues:
Compound,VACV Venus inh,VACV mCherry inh
COc1ccc(C2=NN(CCC(=O)NC3CCCCCC3)C(=O)CC2)cc1,-10%,-23%
Cc1nc2c(OCc3ccc(F)c(F)c3)cccn2c1N(C)C(=O)CCC1CCCC1,-19%,0%
COCCCNc1ccnc2c(Cl)cccc12,-16%,.
COc1ccc(CNC(=O)C(=O)NCC(c2ccc3c(c2)OCO3)N2CCOCC2)cc1 (stereo not given),-14%,-4%
CCOc1ncccc1C(=O)Oc1ccc2c(c1)OCO2,-3%,-4%
Cc1ccc(-n2nnnc2SCC(=O)Nc2cc(C)on2)c(C)c1,-4%,i
O=C(COC(=O)/C=C/c1ccc(Cl)cc1Cl)Nc1ccc2c(c1)OCCO2,-2%,0%
CNc1ncncc1-c1ccc(C(=O)N(C)C)cc1,0%,i
CCCc1ccc(C(O)c2ncc(-c3ccc(C)cc3)[nH]2)cc1 (stereo not given),-16%,?
COc1ccc(C)cc1S(=O)(=O)N1CCN(C(=O)c2ncoc2-c2ccc(F)cc2)CC1,-12%,0%
O=C(CN1CCOCC1)c1c[nH]c2ccccc12,-12%,i
CC(=O)N1CC=C2C(C#N)=C(N)C(C#N)(C#N)C(CCc3ccccc3)C2C1 (stereo not given),-2%,i

Nothing new here: an excerpt of the list.
Compound,VACV Venus inh,VACV mCherry inh
COc1ccc(C2=NN(CCC(=O)NC3CCCCCC3)C(=O)CC2)cc1,-10%,-23%
Cc1nc2c(OCc3ccc(F)c(F)c3)cccn2c1N(C)C(=O)CCC1CCCC1,-19%,0%
COCCCNc1ccnc2c(Cl)cccc12,-16%,.
COc1ccc(CNC(=O)C(=O)NCC(c2ccc3c(c2)OCO3)N2CCOCC2)cc1 (stereo not given),-14%,-4%
CCOc1ncccc1C(=O)Oc1ccc2c(c1)OCO2,-3%,-4%

(list continues)
Compound,VACV Venus inh,VACV mCherry inh
O=C(CSc1nnc(-c2ccccn2)o1)Nc1ccccc1F,-11%,i
CC(C)=CCc1c(O)cc2occ(-c3ccc4c(c3)OCO4)c(=O)c2c1O,?,?
O=C(COc1ccc([N+](=O)[O-])cc1)Nc1nc2c(s1)CCCC2,-5%,-4%
O=C(Nc1ccc2c(c1)OCO2)O[C@@H]1C[C@H]2CCCC(=O)N3CC[C@@H](C1)[C@@H]23,-11%,-1%
COc1cc(OC)c(Nc2nc3ccc(C(=O)c4ccccc4)cc3n3c(C)nnc23)cc1Cl,1%,-12%
CCN1C(=O)[C@H]2[C@@H](c3ccc(C)cc3)N3C(=O)N(c4cccc(F)c4)C(=O)[C@@]3(Cc3ccc(Cl)cc3)[C@H]2C1=O,-10%,i
COc1ccc(N2CCN(C(=O)CSc3nc4[nH]ncc4c(=O)n3-c3ccc(Br)cc3)CC2)cc1,-24%,?
O=C(Nc1ccc([N+](=O)[O-])cc1)OC1CCS(=O)(=O)C1 (stereo not given),-1%,-2%
COc1ccc(-n2nnnc2SCC(=O)Nc2ccccc2)cc1,-8%,-17%
CNC(=S)SCCOc1ccccc1C,-14%,-16%
FC(F)(F)c1ccc(CN2C[C@@H]3C(c4ccc(Cl)nc4)C4(c5ccccc5)CC3(C4)[C@H]2c2ccccc2)cc1 (stereo not given in full),?,?
CCn1c(SC)nc(O)c(C(c2ccc(OC)c(O)c2)c2c(O)nc(SC)n(CC)c2=O)c1=O,-3%,.

Additional records
Compound,VACV Venus inh,VACV mCherry inh
c1ccc(-c2nccc3ccccc23)cc1,-8%,-9%
O=C1c2cccc3cccc(c23)C(=O)N1c1cccc(O)c1,2%,-8%
CC(C)(C)NC(=O)CN(Cc1cccs1)C(=O)CCC(=O)Nc1nccs1,-16%,i
COC(=O)C1=C(c2ccccc2OCc2ccccc2)C[C@@H]2CC[C@H]1N2C(=O)NCc1cccc(F)c1,?,-6%
